# Sa growth 42C – inhibitors of Staphylococcus aureus growth at 42 °C. S. aureus RN4220 growth, OD600, 20 h; stronger effect = lower value. relative growth, % (concentration not given with the values). 170,000 tested, 0.53% active. AID 720641;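 active = growth at 42 °C up to 50% and 20 or more points under that at 30 °C, or under 10% at both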;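 also: 300 nL library stock went into each well; scaled to the means of positive and negative controls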
# GIV Gai3 FP – GIV-Galpha-i interaction inhibition | P08753 | Galpha-i3/FITC-GIV peptide fluorescence polarization, 90 min; stronger effect = lower value; scaled: aluminum fluoride 0%, vehicle 100% | percent of control (FP), % (concentration not given with the values) | 210,000 tested, 0.42% active | AID 1224905;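 active = replicate mean at 85% of control or lower, very high polarization wells dropped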;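 also: wells of about 15 µL received 100 nL stock; the first replicate is given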
# Target sequence (P08753 whole entry, looked up): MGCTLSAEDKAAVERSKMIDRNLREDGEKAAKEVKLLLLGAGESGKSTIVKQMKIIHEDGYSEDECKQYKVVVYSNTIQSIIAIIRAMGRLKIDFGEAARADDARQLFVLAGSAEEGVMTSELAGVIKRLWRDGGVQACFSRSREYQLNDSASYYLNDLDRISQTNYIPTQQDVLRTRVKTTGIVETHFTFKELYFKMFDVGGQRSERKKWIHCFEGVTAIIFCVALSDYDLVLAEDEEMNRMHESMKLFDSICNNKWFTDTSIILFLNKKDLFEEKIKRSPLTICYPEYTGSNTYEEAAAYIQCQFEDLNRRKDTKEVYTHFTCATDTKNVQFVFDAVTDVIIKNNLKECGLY
# HCMV UL50-53 inh – disrupts HCMV UL50-UL53 complex binding | HTRF UL50-UL53 interaction, normalized percent inhibition | inhibition, % (no concentration beside the values) | 190,000 tested, 0.15% active | AID 1918969;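 active = both replicates at 50% or more, plus weaker picks with an unusually low signal ratio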;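 also: stock transfer was 100 nL into about 20 µL; 0% = negative control wells and 100% = wells with untagged competitor protein; inactives centre near -12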
# Sa growth 42C second temp – further read-out of Sa growth 42C, marked with its call; relative growth, %; measured here: growth at 30 °C;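 optical density after 20 h as mean of two plates; 100% = untreated growth and lower means inhibition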
# An asterisk follows results filed as active; . = not tested or not shown; & = joins results of further samples.
SMILES,Sa growth 42C,Sa growth 42C second temp,GIV Gai3 FP,HCMV UL50-53 inh
COC(=O)COc1ccc(/C=C2\C(=O)NC(=S)N(c3ccc(Br)cc3)C2=O)cc1OC,.,.,104,-24
Cc1coc2c1c(C)cc1oc(=O)cc(C)c12,110,88,104,-17
COC(=O)Cc1c(C(=O)OC)nnn1-c1ccc(Br)cc1,90,92,105,-28
COc1cccc(N=C2NN=C(c3ccc(S(=O)(=O)N4CCCCC4)cc3)CS2)c1,106,96,.,-22
CCCSc1nnc(NC(=O)c2cc(-c3ccc4c(c3)CC(C)O4)on2)s1 (stereo not given),.,.,102,-14
COc1cccc(-c2noc(-c3cc(OC)cc(OC)c3)n2)c1,98,93,100,-2
O=C(Nc1ccc2c(c1)OCO2)N1CCc2c(sc3c2CCCC3)C1c1ccccc1 (stereo not given),.,.,103,-4
COC(=O)c1cc2sccc2n1CCC#N,119,73,104,-11
CCCCc1ccc(NC(=O)C2CC(=O)N(C)C2)cc1 (stereo not given),104,100,106,-41
S=c1sc2ccccc2n1CN1CCOCC1,52,37,105,-25
O=C(Nc1ccccc1C(=O)N1CCCC1)c1cccc(I)c1,102,98,.,-4
O=C(CNC(=O)c1ccc(Br)cc1)NC1CC1,107,103,.,8
CCOc1ccc(CN(C(=O)c2cc(=O)c3cc(C)cc(C)c3o2)C2CCS(=O)(=O)C2)cc1 (stereo not given),119,77,99,-19
OCCNc1ncnc2scc(-c3ccc(F)cc3)c12,76,84,105,7
Cc1sc2ncnc(NC(C)C(=O)O)c2c1C (stereo not given),94,86,103,-17
CCCN1C(=O)c2c(-n3cccc3)c3cc(C)ccc3n2CC1(C)C(=O)NCCC(C)C (stereo not given),.,.,101,0
CCN(CC)CCCNC(=O)c1ccc2c(c1)NC(=O)C(CS(=O)(=O)Cc1ccc(F)cc1Cl)N2 (stereo not given),121,102,117,.
C/C(N)=C(/C#N)C(=O)Cn1nnc(-c2ccccc2)n1,81,86,.,-10
CCCC(NC(=O)c1ccco1)C(=O)O (stereo not given),94,84,.,-10
CC(C)CCNC(=O)CSc1nc2ccccc2nc1Cc1ccccc1,98,96,105,.
C=CCNc1oc(-c2ccc(Cl)cc2)nc1S(=O)(=O)c1ccc(F)cc1,.,.,102,-13
Cc1nc2sccn2c(=O)c1S(=O)(=O)N1CCCC1,87,86,104&96,-33
Cc1nn(C)cc1CN(C)C(=O)c1cc2n(n1)C(C(F)(F)F)CC(c1ccccc1)N2 (stereo not given),87,80,97,-28
COc1ccccc1NC(=O)C1=C(C)Nc2nc(SCc3ccccc3Cl)nn2C1c1cccnc1 (stereo not given),126,100,105,-1
O=C(Cn1c(=O)n(Cc2ccccc2)c(=O)c2sc3ccccc3c21)Nc1ccccc1,99,86,101,-21
CCOc1cc(C(=O)N2CCn3c4c(c5cc(C)ccc53)CCCC42)cc(OCC)c1OCC (stereo not given),106,92,107,-26
COc1cccc(C(=O)N2CCCC2)c1,115,74,104,-9
CCCNC(=O)Cn1nc(-c2ccc(F)cc2)c2cnc3ccc(F)cc3c21,85,91,91,.
NC(=O)C1CCN(c2ncnc3sc4c(c23)CCCC4)CC1,.,.,104,-10
S=c1[nH]nc(Cc2ccccc2)o1,94&87,93&93,105&101,5&-6

# Single records (already shown):
# NC(=O)C1CCN(c2ncnc3sc4c(c23)CCCC4)CC1 across the screens: Sa growth 42C = .; Sa growth 42C second temp = .; GIV Gai3 FP = 104; HCMV UL50-53 inh = -10
# COc1cccc(N=C2NN=C(c3ccc(S(=O)(=O)N4CCCCC4)cc3)CS2)c1 across the screens: Sa growth 42C = 106; Sa growth 42C second temp = 96; GIV Gai3 FP = .; HCMV UL50-53 inh = -22

# Next records follow.
SMILES,Sa growth 42C,Sa growth 42C second temp,GIV Gai3 FP,HCMV UL50-53 inh
COC(=O)c1cc(NC(=O)c2cc3c(-c4ccccc4F)nn(C)c3s2)cc(C(=O)OC)c1,100,87,107,-38
Cc1cnc(C(=O)Nc2ccccc2-c2nnn(CC(=O)NC3CCCC3)n2)cn1,99,95,.,0
CC(=O)Nc1nnc(S(N)(=O)=O)s1,88,89,104,-15&-3&-63&-35
Cc1cccc(-n2ncc(C(=O)N3CCC(C(N)=O)CC3)c2-n2cccc2)c1,102,89,97,-5
CCCCCn1c2ccccc2c2nc3ccccc3nc21,105,73,105,-10
CSc1n[nH]c(NS(=O)(=O)c2cccc(C(F)(F)F)c2)c1-c1ccccn1,33,14,101,-10
COc1cc(/C=C/C(=O)O)cc(S(=O)(=O)N2CCOCC2)c1OC,106,93,105,.
CC(NC(=O)CN1CCc2ccccc21)c1ccccc1 (stereo not given),102,99,.,-8
CN(C(=O)COC(=O)c1ccccc1O)C1CCCCC1,97,98,.,-3
O=C(Nc1sc2c(c1-c1nc3ccccc3s1)CCCC2)c1sc2ccccc2c1Cl,.,.,101,-23
COc1ccc(/C=C2\Cc3ccccc3C2=O)cc1O,83,95,.,-78
COC(=O)c1ccc(Cl)cc1NC(=O)c1ccc(F)cc1,114,87,99,.
CCN(CC)c1ccc(N=CN2CCOCC2)cc1,56,38,.,-35
O=C(NC1CCCC1)c1cnn(-c2ccc(F)cc2F)c1C1CCNCC1,89,94,96,.
Cc1cc(-c2nn3c(C4COc5ccccc5O4)nnc3s2)c2ccccc2n1 (stereo not given),.,.,115,4
COc1cc2c(cc1NC(=O)CSCc1nc(N)nc(Nc3ccccc3C)n1)oc1ccccc12,103,93,.,-34
Cc1ccc(S(=O)(=O)c2nnn3c2nc(NC(C)c2ccccc2)c2sccc23)cc1 (stereo not given),110,97,107,.
CCCc1cc2c(cc1NC(=O)c1ccccc1SC)OCO2,108,93,96,-1
CC1=C(C(=O)OC2CCC(C)C(C)C2)C(c2ccc(Br)cc2)NC(=O)N1 (stereo not given),.,.,101,-11
C=Cc1ccc(Cn2c(C(=O)O)c(CNCCc3ccco3)c3ccc(C)cc32)cc1,121,70,109,.

# Compounds listed so far that have a thiophene ring, fused or not (9):
SMILES,Sa growth 42C,Sa growth 42C second temp,GIV Gai3 FP,HCMV UL50-53 inh
O=C(Nc1ccc2c(c1)OCO2)N1CCc2c(sc3c2CCCC3)C1c1ccccc1 (stereo not given),.,.,103,-4
COC(=O)c1cc2sccc2n1CCC#N,119,73,104,-11
OCCNc1ncnc2scc(-c3ccc(F)cc3)c12,76,84,105,7
Cc1sc2ncnc(NC(C)C(=O)O)c2c1C (stereo not given),94,86,103,-17
O=C(Cn1c(=O)n(Cc2ccccc2)c(=O)c2sc3ccccc3c21)Nc1ccccc1,99,86,101,-21
NC(=O)C1CCN(c2ncnc3sc4c(c23)CCCC4)CC1,.,.,104,-10
COC(=O)c1cc(NC(=O)c2cc3c(-c4ccccc4F)nn(C)c3s2)cc(C(=O)OC)c1,100,87,107,-38
O=C(Nc1sc2c(c1-c1nc3ccccc3s1)CCCC2)c1sc2ccccc2c1Cl,.,.,101,-23
Cc1ccc(S(=O)(=O)c2nnn3c2nc(NC(C)c2ccccc2)c2sccc23)cc1 (stereo not given),110,97,107,.

# Next section.
SMILES,Sa growth 42C,Sa growth 42C second temp,GIV Gai3 FP,HCMV UL50-53 inh
COc1ccc2c(c1)CC(C(=O)Nc1cc(Cl)ccc1C)CO2 (stereo not given),90,93,103,.
C=CCN1CCN(C2CCN(S(=O)(=O)c3ccc4c(c3)CCCC4)CC2)C(=O)C1=O,.,.,100,-18
CN1C(=O)CCC1(C(=O)O)c1ccccc1 (stereo not given),89,99,107,-2
N#CCCn1cc(/C=C/C(=O)OCC(=O)c2ccc(Cl)cc2)c(-c2cc3ccccc3o2)n1,107,96,.,-2
O=C(COc1ccccc1)OCC(=O)C12CC3CC(CC(C3)C1)C2,114,84,.,-32
COc1ccc(-c2c(C)nn3c4c(cnc23)C(=O)CC(c2ccccc2)C4)cc1 (stereo not given),113,94,101&102,4&4
Cc1cc(C)cc(-n2c(SCC(=O)NCc3ccco3)nc3c([nH]c4ccccc43)c2=O)c1,109,75,97,.
Cc1c(-c2ccc(Br)cc2)c(=O)oc2ccc(OC(=O)N3CCOCC3)cc12,122,78,98,.
CCCc1nnc(NC(=O)CSc2nnc3c4ccccc4n(CC)c3n2)s1,105,92,101,-39
CCN1C(=O)C(O)(CC(=O)c2ccc(OC)c(OC)c2)c2ccccc21 (stereo not given),107,82,96,5
COC(=O)c1c(C)oc2ccc(N(C(=O)Oc3ccccc3)S(=O)(=O)c3ccc(C)cc3)cc12,59,82,103,.
Cc1ccc(C)c(N2CCN(C(=O)Cn3cnc4sc(C)c(S(=O)(=O)N5CCN(c6ncccn6)CC5)c4c3=O)CC2)c1,118,88,108,-24
C/C=C1\NC(=S)N(Cc2ccccc2)C1=O,105,71,104,-8
CCc1ccc(NCc2cc3ccc(OC)cc3n(CC(=O)Nc3cccc(Cl)c3C)c2=O)cc1,97,90,105,.
O=C(COCc1nnc(C(=O)Nc2cccc(Cl)c2)s1)NCCc1c[nH]c2ccccc12,.,.,104,-22
CCC1(C)NC(=O)N(/N=C/c2cc(Br)ccc2OC)C1=O (stereo not given),108,89,.,-20
CCC(CC)NC(=O)Nc1ccc(F)cc1F,101,91,99,-25
COc1cccc(N2C(=O)C(CC(=O)Nc3cccc(F)c3)N(C(C)C)C2=O)c1 (stereo not given),120,98,111,.
Cc1ccc(C2=NN(S(=O)(=O)c3ccccc3)C(c3ccccc3F)C2)cc1 (stereo not given),.,.,104,-9
CN(C)c1ccc(CNc2nc(-c3ccco3)nn2S(C)(=O)=O)cc1,108,89,106,-1
O=C(c1cc(C2CC2)[nH]n1)N1CCC(Cc2ccccc2)CC1,.,.,104,-3
O=C(Nc1nc2ccccc2[nH]1)c1ccc2c(=O)n3c(nc2c1)CCCCC3,114,99,.,-11
CCC1CCCCN1C(=O)CCS(=O)(=O)c1ccccc1 (stereo not given),94,97,100,-7
COc1ccc(Nc2c3c(nc4nncn24)CCC3)cc1OC,119,87,98,-19
CCc1cc2c(=O)n(Cc3ccco3)c(SCC(=O)NCC3CCCO3)nc2s1 (stereo not given),102,78,107,-12
CCOc1ccc(NC(=O)C(NS(=O)(=O)c2cccc3nsnc23)c2ccccc2)cc1 (stereo not given),131,98,101,.
COCCn1cnc2c1c(=O)n(Cc1ccc(C(=O)OC)cc1)c(=O)n2Cc1ccccc1,70,91,.,-15
COc1cccc(-c2nn(Cc3nc(-c4ccc(OC)c(OC)c4)oc3C)c(=O)c3noc(C)c23)c1,.,.,124,1
COc1cccc(NC(=O)c2oc3ccccc3c2NC(=O)C2c3ccccc3Oc3ccccc32)c1,.,.,102,-21
Cc1nc(-c2coc3c(I)c(O)ccc3c2=O)cs1,69,78,.,-35
Cc1cc(-n2c(C)nc3ccccc3c2=O)ccc1NC(=O)c1cccc([N+](=O)[O-])c1C,113,93,95,.
O=S(=O)(NCCSc1ccccc1)c1ccc(Cl)cc1,83,104,99,1
CCc1ccc(OCc2nc(-c3ccc(OC)cc3)no2)c(Br)c1,101,91,99,.
CC(c1ccccc1)n1c(COc2ccccc2)nc2ccccc21 (stereo not given),105,96,99,.
CC(=O)NC(Cc1ccccc1)C(=O)OCN1C(=O)c2ccccc2C1=O (stereo not given),94,98,100,-16
Cc1ccc(-n2nc(-c3ccccc3)c3c2NC(=O)CC3c2ccc3c(c2)OCO3)cc1 (stereo not given),.,.,104,-22
Fc1ccc(COc2ncnc3cc(Cl)ccc23)cc1,102,96,97,0
O=C(NCc1ccco1)c1ccc2snnc2c1,105,88,100,-22
O=C(O)/C=C\C(=O)Nc1ccc2nc[nH]c2c1,126,98,102,0
COc1ccc(C(=O)NC(=O)c2ccccc2O)cc1OC,85,78,100,-40
CC1(C)C(=O)Nc2ccccc2N1C(=O)Cn1ccsc1=N,93,101,.,15
COc1ccc(-c2c(C#N)c(N)nc3sc(C(=O)Nc4ccc(Br)cc4)c(N)c23)cc1,.,.,109,1
O=C1CSc2ccc(S(=O)(=O)N3CCC(C(=O)N4CCCC4)CC3)cc2N1,.,.,100,6
CCOC(=O)/C(C#N)=C/C=C1\C=Cc2ccccc2N1CC,108,93,.,-51
Cn1c(=O)c2c(ncn2CCC(=O)N2CCN(c3cccc(C(F)(F)F)c3)CC2)n(C)c1=O,91,93,100,.
O=C(Cn1ccn2nc(-c3ccc(Cl)cc3)cc2c1=O)Nc1ccccc1Br,.,.,100,-30
O=c1c2sccc2n2c(SCc3ccccc3F)nnc2n1CC1CCCO1 (stereo not given),.,.,102,-5
COc1ccc(Cn2c(SCC(=O)NCc3ccccc3)nc3c(oc4ccccc43)c2=O)cc1,110,79,104,-14
CC(C)CCn1c(=O)c2sccc2n2c(SCc3ccc(F)cc3)nnc12,.,.,100,-29
CCN1C(=O)c2cccc3c(S(=O)(=O)NCCc4ccc(OC)c(OC)c4)ccc1c23,89,72,97,.
# Later entries:
SMILES,Sa growth 42C,Sa growth 42C second temp,GIV Gai3 FP,HCMV UL50-53 inh
CCN(CC)c1ccc(/C=N/NC(=O)CC(C)C)cc1,121,100,104,-80
Cc1onc(-c2ccccc2)c1CNC(=O)C1COc2ccccc2O1 (stereo not given),101,98,99,-1
COC(=O)Cc1c(C)ncnc1OCC(=O)Nc1ccc2c(c1)OCCO2,96,89,106,-15
CCCCC(=O)Nc1ccc(S(=O)(=O)N2CCC(c3nc4ccccc4s3)CC2)cc1,.,.,103,18
O=C(CN1C(=O)C2C3C=CC(C3)C2C1=O)N[C@@H](Cc1ccccc1)c1nc2ccccc2[nH]1 (stereo not given in full),103,91,.,-6
Cc1cc(NC(=O)c2ccc(NC(=O)C(C)C)cc2)no1,105,76,105,-3
CN(C(=O)CSc1nncc2ccccc12)c1ccccc1,103,93,.,0
CCOc1cc(N2CCOCC2)c(OCC)cc1NC(=O)c1cccc(-n2cnnn2)c1,96,101,.,-1
